Screens as filed in PubChem BioAssay.
TRPV1 potentiator = enhances activation of the human vanilloid receptor TRPV1 | potentiation, % at 8.33 µM | Q8NER1 | 320,000 tested, 0.02% active | AID 540277 | TRPV1-expressing cells, Fluo-8 calcium influx, capsaicin EC20 potentiation; host cell line not named in the record; control for the full effect not named in the record; active means potentiation above 80%; inconclusive means 30% to 80%; inactive means below 30%; note: 0% is about no effect
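TRPV1-expressing cells were cultured overnight at 35.5C and loaded with Fluo-8 calcium dye for 40 to 90 min at room temperature. After a 10 s baseline, compound was added and calcium influx was read kinetically for 3 min (ex 480/em 520 nm).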
TRPML1 blocker = blocks the human TRPML1 channel; TRPML1-inducible cells, Ca2+ dye fluorescence, FDSS; stronger effect = lower value; inhibition of EC80 agonist-evoked calcium signal; activity change, negative = inhibition, % (concentration not given with the values); 390,000 tested, 0.02% active; AID 624415; in the data active means activity change below about -50%; inconclusive means about -30% to -50%; inactive means above about -30%;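 note: stimulus is agonist 54-4 at its EC80 concentration; % is set by controls: 0 for no effect and ±100 for the full control effect; compound concentration not given in the record; the text of the record puts the active cut at -80%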
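TRPML1-DL cells, Tet-induced overnight (~16 h, 37 °C) at 1,500 cells/well, were loaded with Ca8 no-wash dye plus quencher for 45-90 min at room temperature. Compounds were pinned during FDSS kinetic reading; agonist 54-4 at EC80 (4 uM final) then added.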
Six1-Eya2 inh = Six1/Eya2 interaction inhibition. AlphaScreen GST-Six1/His-Eya2 binding, biochemical; stronger effect = lower value; control for the full effect not named in the record. activity change, % (no concentration beside the values). Q15475+O00167. 360,000 tested, 0.56% active. AID 651725; in the data active = activity change below about -65%; inconclusive = about -30% to -65%; inactive = above about -30%; note: % is set by controls: 0 for no effect and ±100 for the full control effect; compound concentration not given in the record
Target sequence (O00167 whole entry, looked up): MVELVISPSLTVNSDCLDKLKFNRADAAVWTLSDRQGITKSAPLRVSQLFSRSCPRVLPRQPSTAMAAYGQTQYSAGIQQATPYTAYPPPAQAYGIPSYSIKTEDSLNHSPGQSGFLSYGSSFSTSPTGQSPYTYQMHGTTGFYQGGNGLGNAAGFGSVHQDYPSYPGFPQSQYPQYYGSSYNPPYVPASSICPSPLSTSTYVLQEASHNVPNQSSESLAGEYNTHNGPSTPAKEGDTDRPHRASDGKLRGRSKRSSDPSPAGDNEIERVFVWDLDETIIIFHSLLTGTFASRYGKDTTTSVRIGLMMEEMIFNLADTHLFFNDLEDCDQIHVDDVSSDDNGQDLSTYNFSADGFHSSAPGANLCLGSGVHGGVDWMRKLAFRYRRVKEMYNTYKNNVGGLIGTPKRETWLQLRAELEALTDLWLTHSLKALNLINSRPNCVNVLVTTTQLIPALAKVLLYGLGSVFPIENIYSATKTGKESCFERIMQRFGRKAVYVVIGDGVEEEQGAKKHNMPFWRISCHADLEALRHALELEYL
Target sequence (Q15475 whole entry, looked up): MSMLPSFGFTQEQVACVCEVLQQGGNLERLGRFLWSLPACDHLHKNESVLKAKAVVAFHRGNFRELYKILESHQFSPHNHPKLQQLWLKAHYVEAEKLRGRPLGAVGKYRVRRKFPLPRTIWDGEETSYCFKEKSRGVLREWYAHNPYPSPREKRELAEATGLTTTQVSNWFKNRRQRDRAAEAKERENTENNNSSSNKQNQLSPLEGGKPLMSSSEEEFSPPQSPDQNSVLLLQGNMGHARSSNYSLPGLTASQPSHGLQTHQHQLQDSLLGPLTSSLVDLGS
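Compounds are tested against tagged Six1 and Eya2 proteins bridged by glutathione donor and nickel acceptor beads; after a one-hour incubation at 37 °C without light, AlphaScreen emission is recorded.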
CtBP-E1A inh = inhibitors of CtBP/E1A interaction | AlphaScreen GST-E1A/His-CtBP binding, 1536-well; stronger effect = lower value; control for the full effect not named in the record | activity change, % (no concentration beside the values) | 340,000 tested, 0.49% active; in the data active means activity change below about -65%; inconclusive means about -30% to -65%; inactive means above about -30%; note: % is set by controls: 0 for no effect and ±100 for the full control effect; compound concentration not given in the record
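Steps: dispense buffer (Tris pH 8.0, NaCl 300 mM, TCEP 1 mM, BSA, Tween 20); add 5X protein mix (GST-E1A, His-CtBP, 125 nM each); pin 23 nL compound; 2 h at 37 °C, dark; add 5X beads (50 ug/mL); 1 h; read.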
TRPML1 agonist = activates the human TRPML1 channel. Q9GZU1. TRPML1-expressing cells, Ca2+ dye fluorescence, FDSS; host cell line not named in the record; reference of the full effect not given here. activation, % (test concentration not listed). 410,000 tested, 0.12% active. AID 624414; in the data active = activation above about 50%; inconclusive = about 30% to 50%; inactive = below about 30%; note: 0% is about no effect; the text of the record puts the active cut at 80%
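Agonist activity was taken from a 110 s kinetic Ca2+ dye read on the FDSS after pinning compounds onto TRPML1-DL cells. The cells were seeded at 1,500/well with Tet inducer, incubated about 16 h, then dye-loaded at room temperature.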
D2 PAM = positive allosteric modulators of human D2 dopamine receptor; DiscoveRx D2 beta-arrestin cells, luminescence, 90 min; 100% = 57 uM dopamine signal; P14416; 360,000 tested, 0.23% active; AID 624464; potentiation, % (test concentration not listed); active = potentiation of 50% or more; inconclusive = 30% to 50%; inactive = 30% or less;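 note: compound concentration not given in the record; tested on top of an EC20 dose of dopamine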
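PathHunter beta-arrestin assay in DiscoveRx D2 cells. Compounds were added with an EC20 of dopamine (50 nM final) for 90 min at 37 deg C. Luminescence was read 1 h after detection reagent, with 57 uM dopamine as the EC100 control.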
An asterisk follows results filed as active; u = inconclusive; x = no result given.

SMILES	TRPV1 potentiator	TRPML1 blocker	Six1-Eya2 inh	CtBP-E1A inh	TRPML1 agonist	D2 PAM
CNS(=O)(=O)c1ccc(NC(=O)c2csc(C)c2)cc1	-11	1	10	10	-0.7	3
CS(=O)(=O)N1CCN(C(=O)c2ccncc2)CC1	1	u	4	5	-0.5	-11
CCC[C@@H](CN[C@@H](CNC)C(C)C)NCCCCc1ccccc1	18	16	2	-2	-0.4	-16
CN(C(=O)COc1ncnc2sccc12)C1CCCCC1	5	26	2	9	3.0	-2
Cc1ccc(C(=O)OCC(=O)NC(=O)c2cccn2C)cc1	-22	-6	2	0	-0.1	-9
O=C(O)c1ccc(NC(=O)c2cn(-c3ccccc3)nc2-c2ccccc2)cc1	0	8	-4	-5	-0.3	2
CC1CCN(C(=O)Oc2ccccc2)CC1	-14	-14	10	0	0.0	-5
CNS(=O)(=O)c1ccc(NC(=O)C2c3ccccc3Oc3ccccc32)cc1	3	1	2	14	-0.3	3
CC1CCN(C(=O)CSc2nnc3ccccn23)CC1	x	3	-5	-16	-0.4	-5
COc1ccc(N2CCN(C(=O)c3ccc(Br)cc3)CC2)c([N+](=O)[O-])c1	-9	8	u	-26	0.9	-4

Some entries already given with just Six1-Eya2 inh, CtBP-E1A inh and TRPML1 agonist:
Structure | Six1-Eya2 inh | CtBP-E1A inh | TRPML1 agonist
CNS(=O)(=O)c1ccc(NC(=O)c2csc(C)c2)cc1 | 10 | 10 | -0.7
CS(=O)(=O)N1CCN(C(=O)c2ccncc2)CC1 | 4 | 5 | -0.5
CCC[C@@H](CN[C@@H](CNC)C(C)C)NCCCCc1ccccc1 | 2 | -2 | -0.4

The results go on:
SMILES	TRPV1 potentiator	TRPML1 blocker	Six1-Eya2 inh	CtBP-E1A inh	TRPML1 agonist	D2 PAM
CCC(CO)NCc1ccc(OCC(O)c2ccccc2)c(OC)c1 (stereo not given)	u	-3	3	3	0.2	3
COc1ccccc1-n1ccnc1SCC(=O)NCC1CCCO1 (stereo not given)	5	19	4	10	-0.2	-31
COc1ccc(C(=O)N/N=C(\N)c2cc3ccccc3oc2=O)cc1	25	-4	-7	1	0.0	0
Cc1ccc(S(=O)(=O)Nc2cc3c4c(c2)CCN4C(=O)CC3)cc1	-1	3	9	-19	0.4	9
CC1CCCN(C(=O)c2ccc(S(=O)(=O)Nc3ccccc3Cl)cc2)C1 (stereo not given)	1	-19	-5	-17	3.8	-8
COc1ccc(S(=O)(=O)NCC2CCCN(Cc3cccc(C(C)=O)c3)C2)cc1 (stereo not given)	8	-7	4	0	-0.7	-23
Cc1ccc(Nc2c3c(nc4ccccc24)CCC3)cc1	x	5	-1	-4	1.5	-15
Cc1ccc(NS(=O)(=O)c2cc(C(=O)NCc3cccnc3)ccc2C)cc1	9	2	-1	7	2.2	-3
COc1ccc(CCc2nnc(CCC(=O)NCC3CCCO3)o2)cc1 (stereo not given)	-15	-4	17	5	-0.4	2
CCN1Cc2ccccc2-c2ccccc2S1(=O)=O	x	5	4	5	-0.7	-2

Next section, overlapping the part above by two compounds.
SMILES	TRPV1 potentiator	TRPML1 blocker	Six1-Eya2 inh	CtBP-E1A inh	TRPML1 agonist	D2 PAM
COc1ccc(CCc2nnc(CCC(=O)NCC3CCCO3)o2)cc1 (stereo not given)	-15	-4	17	5	-0.4	2
CCN1Cc2ccccc2-c2ccccc2S1(=O)=O	x	5	4	5	-0.7	-2
Cc1nc([N+](=O)[O-])cn1CC(=O)c1ccccc1	30	-11	1	2	-0.9	2
CCCCCCCCCSc1n[nH]c(N)n1	-16	2	11	-2	-0.3	-11
CCC(C)c1ccc(Nc2ncccc2C#N)cc1 (stereo not given)	-18	0	59	41	0.9	-18
CCCNc1nc(C)cc(-c2cc(C(=O)NC3CCCC3)on2)n1	u	3	3	-20	-1.1	-4
CCOC(=O)c1c(C)[nH]c(C(=O)CN2C(=O)NC(C)(c3ccc(C)cc3)C2=O)c1C (stereo not given)	-5	-8	-13	-10	9.6	u
COC(=O)C1=C(C)N(C)C(=O)/C1=C\c1cccs1	14	0	-1	9	0.5	0
COc1ccc(Nc2nnc(SCc3cc([N+](=O)[O-])cc4c3OCOC4)s2)cc1	3	4	-1	-4	0.1	-4
C#CCOCCOCCOCCNc1nc(N2CCOCC2)nc(N2CCN(C(=O)CCCCCCCCCCNC(=O)[C@@H]([C@H](C)O)n3cc(C)nn3)CC2)n1	-12	-7	-8	-21	-0.4	-13
O=C(NCCc1cccc(F)c1)/C(=C/c1cccnc1)NC(=O)c1ccccc1	5	-14	1	x	0.5	-8
CN1CCN(C(=O)CCN2C(=O)S/C(=C/c3ccc(Cl)cc3)C2=O)CC1	u	4	2	-6	0.7	-4

SMILES	TRPV1 potentiator	TRPML1 blocker	Six1-Eya2 inh	CtBP-E1A inh	TRPML1 agonist	D2 PAM
COc1ccccc1OCC(=O)NCCCn1ccnc1	2	-19	5	x	0.2	-12
O=C(Nc1ccc2nc(-c3cccnc3)[nH]c2c1)c1ccco1	0	-5	-22	-2	-0.8	4
Cc1cc(C)c(-c2c(O)c3c(n(C)c2=O)CC(C)(C)CC3=O)c(C)c1	12	-4	-7	16	0.8	-9
O=C(C[C@H]1C[C@H](C(=O)N2CCCCC2)[C@@]2(CCc3ccccc3)c3[nH]c4cc(-c5ccco5)ccc4c3CCN2C1=O)NCCC1=CCCCC1	x	15	-15	-17	-0.2	-12
Cc1ccc2nc(N3CCC(C(=O)NC4CCCCC4)CC3)sc2c1	3	4	2	2	0.6	-8
OC(COc1ccc(OCc2ccccc2)cc1)CN1CCOCC1 (stereo not given)	-6	-23	-1	1	-0.4	-4
CC12C(=O)N(NC(=O)c3ccncc3)C(=O)C1C1C=CC2C1 (stereo not given)	-6	-7	5	-5	0.4	-5
CCCOc1ccc(C2C3=C(CCCC3=O)N(CC(=O)O)C3=C2C(=O)CCC3)cc1OCC	-16	-14	3	0	0.2	1
O=C(N=Nc1c(O)[nH]c2ccccc12)c1ccc(CN2CCOCC2)cc1	6	-9	-6	3	-0.2	-2
C=CCC[C@@H](Cc1ccc(F)cc1)C(=O)OC[C@H](Cc1c[nH]c2ccccc12)NC(=O)[C@@H](CC=C)CC(=O)N(CCO)Cc1ccccc1	x	-5	-17	-7	-0.6	3

SMILES	TRPV1 potentiator	TRPML1 blocker	Six1-Eya2 inh	CtBP-E1A inh	TRPML1 agonist	D2 PAM
CC(C)(C)c1ccc(C(=O)Nc2cccc3c(=O)[nH][nH]c(=O)c23)cc1	-10	-12	22	6	5.0	-10
C=CCNCC(O)COc1ccc(C(C)=O)cc1OC (stereo not given)	-1	-4	-2	7	-0.3	-4
CCOc1ccc(Nc2cc(C)c3ccccc3n2)cc1	-10	-10	0	1	-0.1	-18
Nc1[nH]nc2nc(-c3ccccc3)[nH]c(=O)c12	u	7	-24	x	3.1	8
CCNC(=O)C1CCCN(C(=O)c2cc(C)oc2C)CC1 (stereo not given)	x	2	4	0	-0.4	-3
CCOC(=O)c1c(C)n(-c2ccc(C)cc2)c2ccc(OCC(O)CNCCCO)cc12 (stereo not given)	3	u	-7	-18	0.2	-15
Cc1ccc(CSc2nnc(NC(=O)C3COc4ccccc4O3)s2)cc1 (stereo not given)	10	-8	-21	1	1.2	-2
Cc1ccc(OCCCC(=O)Nc2ccc(Br)cc2)cc1	10	6	7	-2	0.4	2
CC1=C([N+](=O)[O-])C(c2ccc(Cl)cc2)NC(=O)N1 (stereo not given)	-8	1	-6	2	0.1	-38
CC(c1ccccc1)N1C(=O)NC(NC(=O)C(C)(C)C)(C(F)(F)F)C1=O (stereo not given)	10	-3	-8	-5	0.8	-9

SMILES	TRPV1 potentiator	TRPML1 blocker	Six1-Eya2 inh	CtBP-E1A inh	TRPML1 agonist	D2 PAM
C=CCNc1nnc(SCC(=O)N2CCCCC2)c2ccccc12	1	15	-10	-12	0.1	-15
COc1ccc(-c2ccc3c(N)c(C(=O)NC(C)C)sc3n2)cc1OC	u	12	-15	-23	0.3	15
Cn1cc(CCNC(=O)CCc2nnc(CCCCc3ccccc3)o2)cn1	-3	11	13	x	-1.0	-1
Oc1ccccc1-c1cc(-c2ccc(F)cc2)n[nH]1	2	-13	7	5	1.0	-6
Cn1c(CNC(=O)C(Cc2ccccc2)NC(=O)c2ccccc2F)cc(=O)n(C)c1=O (stereo not given)	-2	7	-2	1	0.3	-4
NS(=O)(=O)c1ccc(CCNC(=O)CCc2ccccc2)cc1	x	19	0	5	-0.1	0
Cc1cc(N2CCN(C(c3ccnc4ccccc34)c3nnnn3-c3c(C)cccc3C)CC2)c2ccccc2n1 (stereo not given)	x	x	-17	-11	0.2	x
Cc1ccc(S(=O)(=O)N2CCCC(C(=O)O)C2)s1 (stereo not given)	x	-6	11	-19	0.6	5
Cc1ccc(C(=O)NNc2ncnc3c2cnn3C)cc1	x	12	3	8	-0.2	-10
CCCC12CN3CC(C)(CN(C1)C3c1ccc3c(c1)OCO3)C2=O (stereo not given)	-2	15	-1	1	0.7	27
COc1ccccc1C1(O)CC2CCC(C1)N2S(=O)(=O)c1ccc(C(C)=O)cc1 (stereo not given)	-1	-14	-4	-10	-0.1	5

Some of the entries so far, with values under each structure:
The line under a structure holds: TRPV1 potentiator	TRPML1 blocker	Six1-Eya2 inh	CtBP-E1A inh	TRPML1 agonist	D2 PAM
COc1ccc(-c2ccc3c(N)c(C(=O)NC(C)C)sc3n2)cc1OC
 : u	12	-15	-23	0.3	15
Cn1cc(CCNC(=O)CCc2nnc(CCCCc3ccccc3)o2)cn1
 : -3	11	13	x	-1.0	-1
Oc1ccccc1-c1cc(-c2ccc(F)cc2)n[nH]1
 : 2	-13	7	5	1.0	-6
Cn1c(CNC(=O)C(Cc2ccccc2)NC(=O)c2ccccc2F)cc(=O)n(C)c1=O (stereo not given)
 : -2	7	-2	1	0.3	-4
NS(=O)(=O)c1ccc(CCNC(=O)CCc2ccccc2)cc1
 : x	19	0	5	-0.1	0
Cc1cc(N2CCN(C(c3ccnc4ccccc34)c3nnnn3-c3c(C)cccc3C)CC2)c2ccccc2n1 (stereo not given)
 : x	x	-17	-11	0.2	x
Cc1ccc(S(=O)(=O)N2CCCC(C(=O)O)C2)s1 (stereo not given)
 : x	-6	11	-19	0.6	5
